Bioassay records from PubChem.
Vaccinia mCherry: inhibitors of vaccinia virus infection (mCherry reporter signal); Vaccinia virus mCherry reporter infection, fluorescence; about a quarter of the inactives have no number; Potency, µM (top dose mostly 36.5 µM), for the others: at the top dose activity change, negative = inhibition, hits mostly inhibitors; 0.63% of 310,000 active; active = well fitted inhibition curve with a large enough effect; inconclusive = small, poorly fitted or top-dose-only effect; inactive = no such curve, though single readings can be large or run the other way; tested in A549 cells; further: nearly all actives have a fitted effect of over 35% in size; inactives centre near -10
VACV Venus inh: vaccinia inhibition (Venus reporter); AID 720580; Potency, µM (doses to about 36.5 µM), for inactives: top-dose activity change, negative = inhibition, hits mostly inhibitors; 0.46% of 330,000 active; Vaccinia virus Venus reporter expression, fluorescence; active means well fitted inhibition curve with a large enough effect; inconclusive means small, poorly fitted or top-dose-only effect; inactive means no such curve, though single readings can be large or run the other way; tested in A549 cells; further: nearly all actives have a fitted effect of over 30% in size; inactives centre near -10
* = called active by the depositor; i = inactive; ? = inconclusive; . = not tested or not shown; & = joins results of further samples. On the % scale 0 is the no-effect control and ±100 the full control effect; potency means the concentration at half of the fitted maximal effect.

SMILES	Vaccinia mCherry	VACV Venus inh
Cc1cccc(C)c1NC(=O)COC(=O)CCc1ccc(S(=O)(=O)N2CCCCC2)cc1	i	3%
NC(Cc1ccc(F)cc1)c1csc(Nc2cc(Oc3ccccc3)ncn2)n1 (centres undefined)	?	?
O=C(Nc1ccc(Br)cn1)c1ccc([N+](=O)[O-])cc1Cl	?	-9%
O=C(CNc1cccc2ccccc12)N/N=C/C=C/c1ccco1	-15%	-22%
COC(=O)c1cc([N+](=O)[O-])c(-n2cncn2)c([N+](=O)[O-])c1	?	?
COCC1CCN(C(=O)c2cc(COc3ccc(F)cc3Cl)on2)C1 (centres undefined)	3%	-3%
COc1ccc2cc(C(=O)N3CCCCCC3)sc(=O)c2c1OC	.	-20%
COCC(=O)N/N=C/c1c(C)[nH]n(-c2ccccc2)c1=O	-12%	-3%
S=c1[nH]ccn1-c1c(Cl)cccc1Cl	i	1%
COc1ccc(-n2sc3c(c2=S)-c2cc(OC)ccc2NC3(C)C)cc1	?	?
C#CCOC(=O)C(NC(=O)c1ccccc1)=C(C)C	-12%	-7%
Cc1ccc(S(=O)(=O)Nc2ccc3c(c2)CCC3)cc1	-29%	?
Cc1cc(Cl)ccc1NC(=O)CCC(=O)N/N=C/c1cccnc1	-15%	2%
Cc1cc(C)n(-c2nc3ccccc3nc2N2CCN(C(=O)c3ccc(Cl)cc3)CC2)n1	i	-15%
Fc1cccc(/C=N/Nc2ncnc3nc[nH]c23)c1	?	-22%
O=C(NC1CCCc2ccccc21)C1CCC(CNc2c(N3CCOCC3)c(=O)c2=O)CC1 (centres undefined)	-12%	-5%
CCOc1ccc(CNc2ncnc(N)n2)cc1	i	-6%
O=c1c2ccccc2sn1-c1ccc(S(=O)(=O)N2CCCCC2)cc1	-4%&-12%&-7%	28%&-17%&-16%
CCN1CCCC1CNC(=O)c1cc(S(N)(=O)=O)ccc1OC (centres undefined)	-14%&-14%&-14%	-11%&-10%&-12%
COc1ccc(NC(=O)Cn2c(=O)n(-c3ccc(C)c(C)c3)c(=O)c3c4c(sc32)CCCCC4)cc1Cl	-15%	-15%

Entries above with a nitro group on carbon:
SMILES	Vaccinia mCherry	VACV Venus inh
O=C(Nc1ccc(Br)cn1)c1ccc([N+](=O)[O-])cc1Cl	?	-9%
COC(=O)c1cc([N+](=O)[O-])c(-n2cncn2)c([N+](=O)[O-])c1	?	?

More records follow.
SMILES	Vaccinia mCherry	VACV Venus inh
O=C(CNC(=O)C1COc2ccccc2O1)N/N=C/c1ccc(O)cc1O (centres undefined)	?	-11%
CCN(Cc1ccncc1)Cc1cn[nH]c1-c1ccc(OC)cc1F	i	-7%
CCCOC(=O)c1ccc(OCC(O)CN2CCN(C(=O)c3ccccc3)CC2)cc1 (centres undefined)	.	-28%
C/C(CC(=O)NC12CC3CC(CC(C3)C1)C2)=N\NC(=O)c1ccc(F)cc1	-13%	-4%
CC(C)(C)c1ccc(C(=O)NCC(=O)OCC(=O)c2ccc3c(c2)-c2ccccc2C3)cc1	i	-17%
CCCOc1ccc(-c2cccc(NS(=O)(=O)c3cccs3)c2)nn1	-13%	-12%
CC(=O)C(C(c1ccccc1)N1CCOCC1)N1CCOCC1 (centres undefined)	-11%	14%
CCN(CC)C(=O)c1sc2c(c1C)c(=O)n(-c1ccc(C)c(C)c1)c(=O)n2CC(=O)Nc1ccc(OC)cc1OC	-28%	-18%
O=C(N[C@H]1CC[C@H](CCNC(=O)C2CC2)O[C@@H]1CO)c1ccccn1	-3%	-5%
CCOc1ccc(C(=O)NN2C(=S)NC(C)(C)C=C2C)cc1	-20%	-21%
Cc1ccccc1CNC(=O)c1ccccc1C	.	-3%
COc1ccc([C@@H]2[C@H]3CN(C(C)=O)CC=C3C(C#N)=C(N)C2(C#N)C#N)c2ccccc12	.	-12%
Cc1ccc(C(C)C)c(OCC(=O)Nc2c(C(=O)c3ccccc3)oc3ccccc23)c1	-1%	-2%
COc1ccc(C)cc1S(=O)(=O)N(C)CC(=O)Nc1ccccc1	.	-11%
Cc1csc(NC(=O)CSc2nnc(Cc3cccn3C)n2CCc2ccccc2)n1	-11%	-7%
COc1ccc(CC(=O)N(C)CC(=O)Nc2c(C)cccc2C)cc1S(=O)(=O)N1CCOCC1	i	-14%
O=C(c1cc2ccccc2oc1=O)N1CCN(c2ccc(N3CCOCC3)nn2)CC1	i	-17%
CC(C)CC(=O)Nc1cccc2c1C(=O)N(c1ccccc1)C2=O	.	-11%
O=C(CSc1nc2ccccc2o1)N1c2ccccc2Sc2ccccc21	-19%	-13%
CCC(NS(=O)(=O)c1cn(C)nc1C)c1ccccc1 (centres undefined)	4%	-2%
CC(=O)Nc1ccc(NC(=O)CN(c2ccc([N+](=O)[O-])cc2)S(=O)(=O)c2ccccc2)cc1	-10%	-10%
COc1cc(NS(=O)(=O)c2ccc(F)cc2)c(C(=O)O)cc1OC	-2%	-16%
CCOC(=O)c1c(-c2ccccc2)oc2ccc(OC)cc12	.	5%
Cc1ccc(C(CNC(=O)Nc2ccccc2)N2CCN(C)CC2)cc1 (centres undefined)	-21%	-13%
CCc1ccc(C2=C(C)C(N3CCC(C(=O)NCc4ccc(C)o4)CC3)=NS2(=O)=O)cc1	-18%	-25%
Cc1cccc(C)c1NC(=O)CCCSc1nnc(-c2ccc(Cl)cc2)n1-c1ccccc1	13µM*	?
COc1cccc(-c2c[nH]c(=O)[nH]c2=O)c1	-3%	-2%
FC(F)(F)c1cccc(N2CCN(C(=S)NC3CCCCC3)CC2)c1	?	?
Cc1ccc2c(=O)c(C(=O)c3ccc(Cl)cc3)cn(CC(=O)NC3CCCCC3)c2n1	-7%	-8%
Cc1cc(NS(=O)(=O)c2ccc(CC(C)C)cc2)no1	-14%	-11%
O=C(NCC1(N2CCCCC2)CCCCC1)c1ccc(NS(=O)(=O)c2ccc(F)cc2)cc1	-13%	-3%
COc1ccc(CN(C)C(=O)c2ccc(NS(=O)(=O)c3ccc(F)cc3)cc2)c(OC)c1OC	-18%	-14%
CCCOc1ccc(/C=N/NC(=O)c2nnn(-c3nonc3N)c2-c2cccs2)cc1OC	-5%	-18%
Cc1cccc(-c2cc3nc(-c4ccccc4)cc(N4CCC5(CC4)OCCO5)n3n2)c1	.	?
C[C@H](CO)N1C[C@H](C)[C@H](CN(C)C(=O)c2ccccc2F)Oc2ncc(Br)cc2C1=O	-3%	-6%
CC(C)c1ccc(S(=O)(=O)c2n[nH]n3c2nc(=O)c2ccccc23)cc1	i	-10%
COc1ccc(CCNC(=O)c2sc3ccccc3c2Cl)cc1OC	-1%	-10%
CCc1nc2ccccc2n1Cc1ccccc1F	-13%	1%
CC(=O)N1CCN(c2ccc(Nc3nc(C)nc4c3oc3ccccc34)cc2)CC1	-15%	-5%
NC(=O)c1ccsc1NC(=O)c1ccc(S(=O)(=O)N2CCCC2)cc1	i	-23%

Gathered by group, those above with bromine.
SMILES	Vaccinia mCherry	VACV Venus inh
O=C(Nc1ccc(Br)cn1)c1ccc([N+](=O)[O-])cc1Cl	?	-9%
C[C@H](CO)N1C[C@H](C)[C@H](CN(C)C(=O)c2ccccc2F)Oc2ncc(Br)cc2C1=O	-3%	-6%

Next part
SMILES	Vaccinia mCherry	VACV Venus inh
Cc1cc(Br)cc(C)c1NC(=O)c1ccc(C#N)cc1F	-10%	-16%
CN1N=C(C(=O)N2CCN(c3ccc([N+](=O)[O-])cc3)CC2)CCC1=O	-7%	-7%
Cc1cc(OCC(=O)Nc2nnc(C3CC3)s2)ccc1[N+](=O)[O-]	-11%	-7%
N[C@@H](Cn1oc(=O)[nH]c1=O)C(=O)O	-16%&-3%	-18%&-14%
O=C(OCC(=O)N1CCN(C(=O)c2ccco2)CC1)c1sc2cc(F)ccc2c1Cl	-6%	-5%
Cc1ccc(S(=O)(=O)N2CCOCC2)cc1NC(=O)CSc1nccn1C	-1%	4%
COc1cc(/C=N/NC(=O)C23CC4CC(CC(C4)C2)C3)cc(Br)c1O	-24%	-5%
O=C(NNC(=O)c1ccc(NC(=O)c2ccccc2)cc1)c1ccccc1	-19%	-16%
O=S(=O)(Nc1nccs1)c1cnc(Cl)c(Br)c1	-17%	-8%
COc1ccc(CNC(=O)CC2C[C@H](C(=O)N(C(C)C)C(C)C)[C@@]3(C)c4[nH]c5ccccc5c4CCN3C2=O)cc1OC (some centres undefined)	i	-13%
COc1ccc(N2CCN(C(=O)[C@@H](NC(=O)c3ccccc3Cl)C(C)C)CC2)cc1	?	-4%
O=C(OC1C2C=CC1C1C(=O)NC21)c1ccccc1 (centres undefined)	i	4%
CC(C)(C)C(=O)NNC(=O)c1cc2sccc2s1	-2%	0%
O=C(NCCN1CCCCC1)/C(=N\O)c1ccccc1	-12%	2%
O=[N+]([O-])c1cn(Cc2ccc(Cl)cc2)cn1	-21%	-8%
O=C1NCCN(CC2CCN(CC3CCCC3)CC2)C1=O	i	-16%
COc1ccc(S(=O)(=O)N(C)CC(=O)Nc2ccc3c(c2)OCO3)cc1OC	-27%	-21%
CCCCCCc1ccc(OCC(=O)O)cc1OCC(=O)O	-10%	-10%
C[C@@H]1CN([C@@H](C)CO)S(=O)(=O)c2ccc(Br)cc2O[C@H]1CN(C)Cc1ccncc1	-14%	-17%
CCOC(=O)NC(=O)/C(C#N)=N/Nc1c(F)cccc1F	.	-4%

Grouped by structure: those above containing a furan ring, fused or not
SMILES	Vaccinia mCherry	VACV Venus inh
O=C(CNc1cccc2ccccc12)N/N=C/C=C/c1ccco1	-15%	-22%
Cc1ccc(C(C)C)c(OCC(=O)Nc2c(C(=O)c3ccccc3)oc3ccccc23)c1	-1%	-2%
CCOC(=O)c1c(-c2ccccc2)oc2ccc(OC)cc12	.	5%
CCc1ccc(C2=C(C)C(N3CCC(C(=O)NCc4ccc(C)o4)CC3)=NS2(=O)=O)cc1	-18%	-25%
CC(=O)N1CCN(c2ccc(Nc3nc(C)nc4c3oc3ccccc34)cc2)CC1	-15%	-5%
O=C(OCC(=O)N1CCN(C(=O)c2ccco2)CC1)c1sc2cc(F)ccc2c1Cl	-6%	-5%

(further entries)
SMILES	Vaccinia mCherry	VACV Venus inh
COc1ccc(C=Cc2ccc3ccccc3n2)c(OC)c1	?	-23%
COc1ccc(CC(=O)NCCS(=O)(=O)N2CCN(c3ccccc3OC)CC2)cc1	-6%	-26%
COc1ccc(CCNC(=O)c2nn(C)cc2Cl)cc1	-3%	-17%
Cc1ccc(S(=O)(=O)N/N=C/c2cnn(C)c2C)cc1	.	-16%
CSc1nc(Cl)c(Cc2ccc(OC(C)C)cc2)c(N(C)C)n1	-10%	-21%
Cc1nn(-c2ccccc2)c(N)c1C(O)(C(F)(F)F)C(F)(F)F	-1%	-4%
Cc1cc(C(=O)COC(=O)C23CC4CC(CC(O)(C4)C2)C3)c(C)n1C	-15%	-8%
COC(=O)CCC(=O)OC1(C)C(=O)C=C2C=C(C3CC3)N(Cc3ccccc3)C=C2C1=O (centres undefined)	1%	-5%
C/C(N)=C(/C#N)C(=O)CSc1nnc(Nc2ccccc2C)s1	-1%	0%

Compound profiles, as listed above.
Entry for COc1ccc([C@@H]2[C@H]3CN(C(C)=O)CC=C3C(C#N)=C(N)C2(C#N)C#N)c2ccccc12 = Vaccinia mCherry = .; VACV Venus inh = -12%
Entry for COc1ccc(S(=O)(=O)N(C)CC(=O)Nc2ccc3c(c2)OCO3)cc1OC = Vaccinia mCherry = -27%; VACV Venus inh = -21%
Entry for COC(=O)CCC(=O)OC1(C)C(=O)C=C2C=C(C3CC3)N(Cc3ccccc3)C=C2C1=O (centres undefined) = Vaccinia mCherry = 1%; VACV Venus inh = -5%
